Cruzain Triton: qHTS Assay for Promiscuous and Specific Inhibitors of Cruzain (with detergent) | Potency, µM, for the others: max response, negative = inhibition, actives largely listed as inhibitors | 0.43% of 200,000 active | purified cruzain, Z-FR-AMC fluorescence, 0.01% Triton | AID 1478, 2009;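 further: plate controls were neutral wells for no effect and buffer without enzyme for full effect; nearly all actives have a fitted effect of over 40% in size; top concentration of the series not given in the record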
Target sequence (P25779 123-467 limits assumed): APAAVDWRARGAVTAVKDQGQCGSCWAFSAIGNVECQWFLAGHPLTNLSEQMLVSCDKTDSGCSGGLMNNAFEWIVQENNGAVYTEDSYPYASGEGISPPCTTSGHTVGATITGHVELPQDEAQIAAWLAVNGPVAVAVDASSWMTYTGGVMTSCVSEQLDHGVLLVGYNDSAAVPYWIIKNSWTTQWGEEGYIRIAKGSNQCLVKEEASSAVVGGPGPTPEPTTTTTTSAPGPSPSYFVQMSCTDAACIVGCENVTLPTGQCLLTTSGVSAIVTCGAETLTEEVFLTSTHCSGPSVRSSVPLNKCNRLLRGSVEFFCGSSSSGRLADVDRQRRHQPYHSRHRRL
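Read-out: AMC fluorescence (360 nm excitation, 450 nm emission), four reads over 2 min, first-to-third difference used. Conditions: cruzain 1.5 nM, Z-FR-AMC 2 uM, pH 5.5 acetate, 5 mM DTT, 0.01% Triton X-100.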
Cruzain noTriton: qHTS Assay for Promiscuous and Specific Inhibitors of Cruzain (without detergent) | Cruzipain (Trypanosoma cruzi), P25779 | purified cruzain, Z-FR-AMC fluorescence, no detergent | Potency, µM, for the others: max response, negative = inhibition, hits mostly inhibitors | 2.3% of 200,000 active;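 further: plate controls were enzyme without inhibitor for no effect and buffer without enzyme for full effect; nearly all actives have a fitted effect of over 40% in size; top concentration of the series not given in the record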
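Detergent-free condition (0.00005% Triton X-100) in acetate buffer pH 5.5 with DTT. 1.5 nM enzyme and compound were pre-mixed 15 min, then 2 uM Z-FR-AMC substrate added; reaction progress from fluorescence change between first and third reads (60 s).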
Marburg entry inh: qHTS for inhibitors of binding or entry into cells for Marburg Virus | Marburg virus pseudotyped entry inhibition, cell reporter; control for the full effect not named in the record; about a third of the inactives were read at about 46 µM | Potency, µM (highest dose often 37.8 µM), for the others: at the top dose activity change, negative = inhibition, most hits filed as inhibitors | 1.8% of 300,000 active; active = well fitted inhibition curve with a large enough effect; inconclusive = small, poorly fitted or top-dose-only effect, or effect the other way; inactive = flat fitted curve, though single readings scatter; tested in HEK293 cells; about a fifth of its hits are not listed in these tables; further: on the % scale 0 is the no-effect control and ±100 the full control effect; luciferase read-out
SARS PLpro yeast: qHTS of Yeast-based Assay for SARS-CoV PLP. 0.19% of 330,000 active. S. cerevisiae expressing SARS-CoV PLpro, growth rescue; control for the full effect not named in the record. Potency, µM (series often up to 32.9 µM), for inactives: at the top dose activity, positive = growth rescue; active means well fitted rising curve with a large enough effect; inconclusive means small, poorly fitted or top-dose-only effect; inactive means no such curve, though single readings can be large or run the other way; further: 0% is about no effect; nearly all actives have a fitted effect of over 55% in size; growth read by luminescence after 48 h
NS1 inh: qHTS Assay for Inhibitors of Influenza NS1 Protein Function. S. cerevisiae slowed by influenza A NS1, growth recovery by OD600. Potency, µM (titrated, usually from 46.1 µM), for the others: top-dose activity, positive = more growth. 0.4% of 270,000 active; active means well fitted rising curve with a large enough effect; inconclusive means small, poorly fitted or top-dose-only effect; inactive means no such curve, though single readings can be large or run the other way; further: nearly all actives have a fitted effect of over 50% in size
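S. cerevisiae expressing influenza A NS1, grown in glucose, washed, then diluted 1:100 into pH 6.0 -URA galactose medium with 23 nl compound. Growth recovery read as OD600; NS1-free strain serves as control.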
Lassa entry inh: qHTS for Inhibitors of binding or entry into cells for Lassa Virus | Lassa virus pseudotype entry inhibition, cell reporter; control for the full effect not named in the record | Potency, µM (highest dose often 37.9 µM), for inactives: top-dose activity change, negative = inhibition, hits mostly inhibitors | 1.2% of 300,000 active | AID 540256, 2011; active means well fitted inhibition curve with a large enough effect; inconclusive means small, poorly fitted or top-dose-only effect, or effect the other way; inactive means flat fitted curve, though single readings scatter; tested in HEK293 cells; further: on the % scale 0 is the no-effect control and ±100 the full control effect; nearly all actives have a fitted effect of over 50% in size; luciferase read-out
RE007 growth inh: qHTS Assay for Inhibitors of the HIV-1 protein Vpr. S. pombe RE007 Vpr strain, BacTiter-Glo ATP luminescence, 24 h; control for the full effect not named in the record. Potency, µM (top dose mostly 92.2 µM), without a hit: top-dose activity change, negative = less growth. 0.21% of 360,000 active. AID 651644, 2012; active = well fitted falling curve with a large enough effect; inconclusive = small, poorly fitted or top-dose-only effect; inactive = no such curve, though single readings can be large or run the other way;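 further: on the % scale 0 is the no-effect control and ±100 the full control effect; nearly all actives have a fitted effect of over 50% in size; the assay follows cell death caused by Vpr and the record does not say whether a fall means rescue or toxicity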
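Fission yeast RE007 carrying one integrated HIV-1 vpr copy, seeded at OD 0.01 in PMG+AL medium with 23 nL pinned compound. Grown 24 h at 30 degrees; viability read by BacTiter-Glo luminescence after 5 min.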
StopGo reporter: High Throughput Screening for Foot and Mouth Disease Virus Antivirals. human cells with a luciferase reporter of 2A StopGo recoding; control for the full effect not named in the record. Potency, µM (doses to about 57.9 µM), for the others: top-dose signal change, negative = less light. 1.2% of 410,000 active. AID 1159524, 2015; active = well fitted falling curve with a large enough effect; inconclusive = small, poorly fitted or top-dose-only effect; inactive = no such curve, though single readings can be large or run the other way; tested in HEK293T cells; further: on the % scale 0 is the no-effect control and ±100 the full control effect; nearly all actives have a fitted effect of over 45% in size; luciferase light after 4 h
An asterisk follows results filed as active; ? = inconclusive; / = no result given; & = joins results of further samples; [ ] = remark or other dose. Unless noted, the call rests on the fitted dose curve; in most records, active means well fitted curve in the direction sought with a large enough effect; inconclusive means small, poorly fitted or top-dose-only effect, or another doubt; inactive means no such curve, though single readings can be large; an effect the other way counts as inactive or inconclusive. Potency means the concentration at half of the fitted maximal effect.

canonical_smiles	Cruzain noTriton	StopGo reporter	Marburg entry inh	NS1 inh	RE007 growth inh	Lassa entry inh	Cruzain Triton	SARS PLpro yeast
Cc1cc(-c2ccc(C)c(S(=O)(=O)NC(c3cccs3)C(C)C)c2)on1 (stereo unspecified)	-13.4%	57.7%[activator]	/	/	/	-26.4%[46.1 µM]	-5.0%	/
CCC(C)C(=O)Nc1ccc(S(=O)(=O)Nc2nccs2)cc1 (stereo unspecified)	/	41.1%[activator]	/	11.7%	13.0%	/	/	10.4%
O=C(NCCCc1ccccc1)C1CCN(S(=O)(=O)c2ccc(F)cc2)CC1	/	-19.5%	?	-26.3%	16.5%	?	/	-12.1%
Cc1nc(N)nc(SCc2ccc([N+](=O)[O-])cc2)c1N	/	-14.4%	/	2.7%	-1.3%	/	/	0.3%
Cc1ccc(CCNC(=O)c2cn(C)c3ccc(S(=O)(=O)N(C)C4CCCCC4)cc3c2=O)cc1	-14.7%	10.7%	0.0%[46.1 µM]	/	/	24.9%[46.1 µM]	-0.9%	/
Cc1nc2ccccn2c1C(=O)NNS(=O)(=O)c1ccc(Cl)cc1	/	-11.5%	?	5.0%	-9.4%	-28.0%[46.1 µM]	/	1.0%
CNc1ccccc1C(=O)OCC(C)=O	-5.5%	-9.2%	?	-4.8%	-10.9%	3.4%	-1.0%	-0.6%
COc1ccccc1N1CCN(C(=O)c2cn(C)c3ccc(S(=O)(=O)N(C)C4CCCCC4)cc3c2=O)CC1	5.8%	-10.0%	-0.7%[46.1 µM]	/	/	14.8%[46.1 µM]	-1.9%	/
O=C(COC(=O)Cn1cnc2ccccc21)Nc1cccc([N+](=O)[O-])c1	/	-19.6%	5.2%[46.1 µM]	/	-3.5%	23.6%[46.1 µM]	/	0.5%
O=S(=O)(c1ccccc1)c1cc(O)ccc1O	/	34.1%[activator]	-2.8%[46.1 µM]	-3.2%	-1.2%	10.4%	/	5.6%
COc1ccc(CNC(=O)/C=C/c2ccccc2[N+](=O)[O-])cc1	/	15.3%	/	8.8%	-15.4%	/	/	0.6%
Cc1nn(-c2ccccc2)c2c1C(c1ccc(O)c(O)c1)N1C(=N2)C(Nc2ccccc2)=Nc2ccccc21 (stereo unspecified)	?	-8.8%	9.1%&-0.2%	?	20.2%	3.6%	5.3%	-10.6%
CC(C)(C)OC(=O)NCCCC[C@H](NC(=O)c1nc[nH]c1C(=O)NCc1ccc(CNC(=O)OC(C)(C)C)cc1)C(=O)OC(C)(C)C	/	-8.2%	/	?	-2.1%	/	/	-1.8%
Cn1nnnc1SC(C(=O)Nc1cccc(C(F)(F)F)c1)c1ccccc1 (stereo unspecified)	-5.8%	-6.5%	-3.0%	-2.0%	6.0%	0.1%	-6.2%	-17.4%
Cc1ccc(N(Cc2cc(=O)[nH]c3ccccc23)C(=O)C(C)C)c(C)c1	/	-18.0%	?	10.7%	15.6%	3.6%[46.1 µM]	/	-0.7%

(list continues)
canonical_smiles	Cruzain noTriton	StopGo reporter	Marburg entry inh	NS1 inh	RE007 growth inh	Lassa entry inh	Cruzain Triton	SARS PLpro yeast
COc1ccc(/C=N/N2CCOCC2)cc1COc1ccc(Cl)cc1	?	-10.9%	13.3%	-27.4%	-4.1%	4.0%	-7.6%	0.9%
CCOc1cc(NC(=S)NCCCN(C)C)c(OCC)cc1NC(=O)c1cccs1	-2.2%	0.0%	?	9.6%	-26.0%	1.5%	-0.2%	-6.5%
O=[N+]([O-])c1ccc(S(=O)(=O)N2CCn3cccc3C2c2ccccc2F)cc1 (stereo unspecified)	?	?	/	/	/	-6.8%[46.1 µM]	-8.0%	/
c1ccc(-c2cn(-c3ccccc3)c3[n+]2CCCS3)cc1	/	?	?	-0.8%	-0.1%	4.3%	/	-0.5%
CCOc1ccc(C(=O)/C=C/Nc2ccc(S(=O)(=O)Nc3cc(C)nc(C)n3)cc2)cc1	/	80.0%[activator]	2.2%[46.1 µM]	-11.2%	11.9%	5.0%	/	-1.9%
Cc1ccc(S(=O)(=O)N(C)C)cc1NC(=O)COC(=O)c1n[nH]c(=O)c2ccccc12	/	-10.9%	27.4%[46.1 µM]	/	8.4%	0.0%	/	2.5%
CC(C)(C)C1=CC(=O)C(N2CCOCC2)=CC1=O	-1.6%	?	?	-18.0%	-12.3%	12.6µM*	-4.4%	-13.9%
COc1cc(C(=O)N/N=C/c2cn(Cc3cccc(F)c3)c3ccccc23)ccc1O	/	?	-3.2%	7.9%	11.0%	?	/	7.4%
COc1ccc(N2CC(C)Cn3c2nc2c3c(=O)n(CCc3ccccc3)c(=O)n2C)cc1 (stereo unspecified)	?	0.0%	9.3%	-5.5%	-4.3%	0.3%	-1.7%	-3.0%
COc1ccccc1/C=C1\C(=O)NC(=S)N(c2ccccc2)C1=O	/	-0.7%	/	7.7%	5.5%	/	/	10.4%
CCN(CC)c1ccc(/C=C2\C(=O)N(c3nnc(C)c(=O)[nH]3)N=C2C)cc1	/	28.2µM*	?	-0.6%	9.8%	?	/	-0.9%
CC(OC(=O)CCCSc1nc2ccccc2s1)C(=O)NC(N)=O (stereo unspecified)	/	-9.7%	?	/	1.3%	-13.7%	/	-0.6%
COc1ccc(N2CC(C(=O)N(C)CC(=O)Nc3ccc(Cl)c(C(F)(F)F)c3)CC2=O)c(OC)c1 (stereo unspecified)	/	-35.6%	?	/	18.1%	0.0%	/	4.9%
c1ccn2cc(-c3ccc4c(c3)OCO4)cc2c1	/	45.2%[activator]	-2.3%&-2.3%[46.1 µM]	7.5%	-11.0%	3.1%	/	0.6%
CCc1ccc(NC(=O)CSc2nc(O)cc(=O)n2C2CCCC2)cc1	/	-19.8%	-16.4%[46.1 µM]	21.3%	-2.7%	-1.5%	/	6.8%

(listing goes on)
canonical_smiles	Cruzain noTriton	StopGo reporter	Marburg entry inh	NS1 inh	RE007 growth inh	Lassa entry inh	Cruzain Triton	SARS PLpro yeast
COc1cccc(OCC(=O)N2CCCc3ccccc32)c1	/	19.5%	?	-11.5%	-9.0%	16.0%[46.1 µM]	/	-1.7%
COc1cccc(N(CC(=O)NCC2CCCO2)C(=O)CNS(=O)(=O)c2ccccc2)c1 (stereo unspecified)	/	5.4%	7.2%[46.1 µM]	/	-0.9%	18.4%[46.1 µM]	/	-1.7%
Cc1cc(S(=O)(=O)N2CCCC(C)C2)ccc1-n1cnnn1 (stereo unspecified)	/	35.3%[activator]	-6.9%[46.1 µM]	-3.2%	12.9%	14.5%	/	-2.4%
CC(=O)NNc1cc(C)nc(N)n1	/	7.2%	7.2%	?	9.4%	3.9%	/	0.5%
CC(C)CCNC(=O)NC(=O)COC(=O)CCN=C1NS(=O)(=O)c2ccccc21	/	-2.2%	-2.7%[46.1 µM]	/	-1.0%	9.4%[46.1 µM]	/	2.5%
O=C(N/N=C\c1ccncc1)c1ccccc1O	/	23.0%	-5.2%[46.1 µM]	/	-6.9%	18.7%	/	1.0%
Cc1ccccc1-c1nc2scc(CCNS(=O)(=O)c3ccccc3)n2n1	-9.3%	50.9%[activator]	/	/	/	?	-9.3%	/
N#CCSc1ccsc1C(=O)Nc1ccc(F)cc1	-12.2%	14.9%	1.1%	0.9%	-19.8%	8.1%	-1.9%	-22.7%
CCN(CC(=O)Nc1c(F)cccc1F)C(=O)c1cccc(S(=O)(=O)N(C)c2ccccc2)c1	/	-14.3%	?	/	-12.1%	?	/	-1.5%
CC(C)C(C(=O)NCC1CCCO1)N(C(=O)CNS(=O)(=O)c1ccccc1)C1CCCCC1 (stereo unspecified)	/	-0.2%	20.3%[46.1 µM]	-8.0%	-7.0%	/	/	-0.5%
CC(C)n1c(=S)[nH]c2cc(Cl)ccc21	/	-12.1%	/	0.7%	6.0%	/	/	23.9%
COc1cc2c(cc1OC)C(C)N(Cc1ccc3c(c1)OCO3)CC2 (stereo unspecified)	/	-24.6%	/	-2.5%	-9.6%	/	/	1.1%
Cc1ccc(Cl)cc1NS(=O)(=O)c1ccc2c(c1)NC(=O)CCS2	-16.5%	4.8%	/	/	/	1.5%[46.1 µM]	-6.5%	/
Cc1cc(Cl)c(S(=O)(=O)NC(C)C)cc1OCC(N)=O	15.0%	-0.7%	-18.0%	2.2%	4.3%	20.0%	-1.2%	3.3%
Cc1cc(/C=C2/C(=O)NN(c3ccccc3)C2=O)c(C)n1-c1ccc(O)cc1	-27.4%	17.8µM*	7.08µM*	29.2%	4.4%	?	-11.1%	-23.9%

Entries shown so far containing a tert-butyl group, in the order listed:
canonical_smiles	Cruzain noTriton	StopGo reporter	Marburg entry inh	NS1 inh	RE007 growth inh	Lassa entry inh	Cruzain Triton	SARS PLpro yeast
CC(C)(C)OC(=O)NCCCC[C@H](NC(=O)c1nc[nH]c1C(=O)NCc1ccc(CNC(=O)OC(C)(C)C)cc1)C(=O)OC(C)(C)C	/	-8.2%	/	?	-2.1%	/	/	-1.8%
CC(C)(C)C1=CC(=O)C(N2CCOCC2)=CC1=O	-1.6%	?	?	-18.0%	-12.3%	12.6µM*	-4.4%	-13.9%

More results follow.
canonical_smiles	Cruzain noTriton	StopGo reporter	Marburg entry inh	NS1 inh	RE007 growth inh	Lassa entry inh	Cruzain Triton	SARS PLpro yeast
CCCN(CCO)Cc1ccc(F)c(Br)c1	-2.0%	-6.6%	-6.0%	-9.1%	2.0%	-15.3%	5.1%	-6.8%
CC1(C)C2CCC1(C)C(OC(=O)CCn1ccnc1)C2 (stereo unspecified)	13.2%	-26.7%	0.5%	-8.2%	14.8%	9.9%	5.3%	-0.6%
COc1ccc(NC(=O)Cn2nnc(C(=O)NCCc3ccc(OC)c(OC)c3)c2N)cc1	28.4%	-19.1%	-1.1%	-6.9%	-13.4%	0.0%	6.5%	-0.3%
Fc1ccc(CCNc2ncnc3[nH]ncc23)cc1	/	-9.0%	-19.8%	/	1.4%	-9.2%	/	/
O=C(O)CC(SCC(=O)Nc1ccc(Br)cc1)C(=O)O (stereo unspecified)	/	-8.0%	-1.7%[46.1 µM]	10.4%	4.0%	2.3%[46.1 µM]	/	0.3%
